D2 PAM: potentiates the human D2 dopamine receptor allosterically; P14416; DiscoveRx D2 beta-arrestin cells, luminescence, 90 min; 100% = 57 uM dopamine signal; potentiation, % (concentration not given with the values); 0.23% of 360,000 active; AID 624464; active = potentiation of 50% or more; inconclusive = 30% to 50%; inactive = 30% or less;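 also: compound concentration not given in the record; tested on top of an EC20 dose of dopamine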
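D2 cells co-treated with compound plus 50 nM dopamine (EC20) for 90 min at 37 deg C to detect potentiation. Beta-arrestin recruitment was read as enzyme-fragment luminescence after 1 h at ambient temperature. Full response was set by 57 uM dopamine.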
gsp agonist: activates gsp, the McCune-Albright syndrome mutation | 0.13% of 340,000 active | gsp mutant cells, cAMP HTRF, 30 min; control for the full effect not named in the record | AID 624287 | Potency, µM (series often up to 76.9 µM), for the others: at the highest dose activation (cAMP increase), hits mostly activators; active = well fitted activation curve with a large enough effect; inconclusive = small, poorly fitted or top-dose-only effect, or another doubt; inactive = no such curve, though single readings can be large or run the other way; cell line not stated here;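 also: phosphodiesterase inhibitor Ro 20-1724 added with compounds to block cAMP breakdown; potency is read from the fitted curve at half-maximal effect; nearly all actives have a fitted effect of over 60% in size; about a fifth of the inactives were tested at one dose only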
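Cells stably selected in G418 were plated at 2000/well, grown 16-24 hr, then given compounds in DMSO with the PDE inhibitor […] (300 uM solution added) for 30 min at 37C; cAMP was read by HTRF.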
D2 agonist: activates the human D2 dopamine receptor; activation, % (concentration not given with the values); AID 624465; 0.084% of 360,000 active; DiscoveRx PathHunter D2 beta-arrestin, luminescence, 90 min; 100% = 57 uM dopamine signal; in the data active = activation above about 40%; inconclusive = about 15% to 40%; inactive = below about 15%; also: compound concentration not given in the record; the text of the record calls up to 30% inactive
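Agonist mode: compounds alone added to overnight-plated D2 PathHunter cells for 90 min at 37 C, with 57 uM final dopamine (EC100) defining full response. Beta-arrestin recruitment detected by chemiluminescent reagent, read after 1 h at ambient temperature.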
gsp antagonist: gsp mutant antagonism | 0.4% of 340,000 active | gsp-mutant cells, cAMP HTRF, 30 min; control for the full effect not named in the record | AID 624288 | Potency, µM (titrated, usually from 76.9 µM), inactives show top-dose activity change, negative = inhibition, hits mostly inhibitors; active = falling curve of any shape with a large fitted effect; inconclusive = falling curve, mostly with a smaller effect; inactive = flat or rising curve; cell line not stated here;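 also: intracellular cAMP measured with PDE inhibitor Ro 20-1724 present during compound exposure; potency is read from the fitted curve at half-maximal effect; % is scaled to controls: 0 for no effect and ±100 for the full control effect; nearly all actives have a fitted effect of over 65% in size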
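Measurement of cellular cAMP by homogeneous time-resolved fluorescence following a 30 min compound exposure at 37C. The PDE inhibitor […] was present throughout; the assay buffer was DPBS with 0.05% BSA and 0.005% Tween 20.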
CtBP-E1A inh: CtBP/E1A binding inhibition; AlphaScreen GST-E1A/His-CtBP binding, 1536-well; active compounds read low; control for the full effect not named in the record; activity change, % (no concentration beside the values); 0.49% of 340,000 active; AID 651724; in the data active means activity change below about -65%; inconclusive means about -30% to -65%; inactive means above about -30%; also: % is scaled to controls: 0 for no effect and ±100 for the full control effect
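Homogeneous bead-based format: GST-tagged E1A captured on glutathione donor beads, His-tagged CtBP on nickel acceptor beads; compounds precede bead addition by 2 h at 37 °C.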
Six1-Eya2 inh: Six1/Eya2 interaction inhibition | Q15475+O00167 | AID 651725 | activity change, % (no concentration beside the values) | 0.56% of 360,000 active | AlphaScreen GST-Six1/His-Eya2 binding, biochemical; active compounds read low; control for the full effect not named in the record; in the data active = activity change below about -65%; inconclusive = about -30% to -65%; inactive = above about -30%; also: % is scaled to controls: 0 for no effect and ±100 for the full control effect
Target sequence (O00167 whole entry, looked up): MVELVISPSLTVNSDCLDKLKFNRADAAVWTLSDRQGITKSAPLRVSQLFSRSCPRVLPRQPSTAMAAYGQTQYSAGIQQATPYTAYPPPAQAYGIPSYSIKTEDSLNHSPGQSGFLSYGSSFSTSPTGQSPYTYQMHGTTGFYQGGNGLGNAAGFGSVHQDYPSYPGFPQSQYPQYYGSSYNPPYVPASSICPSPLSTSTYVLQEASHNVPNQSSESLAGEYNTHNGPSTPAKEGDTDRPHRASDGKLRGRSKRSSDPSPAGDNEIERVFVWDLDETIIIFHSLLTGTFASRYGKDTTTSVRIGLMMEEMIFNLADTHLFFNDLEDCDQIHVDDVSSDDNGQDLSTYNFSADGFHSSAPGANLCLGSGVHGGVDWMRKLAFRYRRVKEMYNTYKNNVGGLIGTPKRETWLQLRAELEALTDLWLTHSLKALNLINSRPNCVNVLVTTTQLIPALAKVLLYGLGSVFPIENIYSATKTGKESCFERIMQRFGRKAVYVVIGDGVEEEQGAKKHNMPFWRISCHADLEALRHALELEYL
Target sequence (Q15475 whole entry, looked up): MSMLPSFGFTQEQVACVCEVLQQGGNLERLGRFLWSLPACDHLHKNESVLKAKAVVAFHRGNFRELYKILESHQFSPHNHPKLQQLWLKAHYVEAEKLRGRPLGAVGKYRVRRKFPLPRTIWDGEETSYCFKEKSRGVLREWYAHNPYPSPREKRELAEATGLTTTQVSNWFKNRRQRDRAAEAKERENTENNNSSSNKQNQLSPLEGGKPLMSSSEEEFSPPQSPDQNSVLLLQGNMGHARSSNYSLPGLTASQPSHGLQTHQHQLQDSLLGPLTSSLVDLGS
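AlphaScreen luminescence read after one hour at 37 °C in darkness. Pin-transferred compounds met GST-Six1 and His-Eya2 protein (5X stock 250 nM/500 nM) plus glutathione donor and Ni-chelate acceptor beads (5X, 50 ug/mL).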
* marks the source's active call; other numbers are inactive results; ? = inconclusive; . = not tested or not shown; [ ] = another dose, or the depositor's remark.

D2 PAM | gsp agonist | D2 agonist | gsp antagonist | CtBP-E1A inh | Six1-Eya2 inh | Structure
17.8 | 1.5% | -1.6 | 11.1% | 2.6 | 3.5 | Cc1cc(=O)oc2c(CN(CC(C)C)CC(C)C)c(O)ccc12
-12.2 | ? | -0.7 | -13.0% | -14.1 | -2.5 | Cc1ccc(NC(=O)C2CCN(S(=O)(=O)c3c(C)noc3/C=C/N(C)C)CC2)cc1
0.1 | -47.6%[inhibitor] | -3.9 | 2.9% | . | 5.5 | CC(C)Cc1nnc(NC(=O)CCC(=O)N2CCCCC2)s1
-3.1 | 14.5%[15.4 µM] | 2.4 | -1.8% | . | 9.5 | COc1ccc(-c2cc(=O)c(C(=O)c3ccc(C)cc3)n[nH]2)cc1
2.2 | 3.3%[15.4 µM] | -3.4 | -24.4% | 15.1 | -0.4 | NC(=O)CSc1nnnn1-c1ccccc1Cl
-34.4 | -10.0% | -0.7 | 6.1% | . | 9.4 | Cc1cc(C(=O)NCc2ccc3c(c2)OCO3)ccc1[N+](=O)[O-]
-1.2 | -46.3%[inhibitor] | 6.6 | -15.6% | 4.2 | 0.7 | COc1ccc(C(=O)NC(=S)NCCc2ccccc2)cc1
2.6 | -32.8%[inhibitor] | -3.1 | -7.8% | . | -5.5 | COc1ccccc1N1CCN(C(=O)c2cccc3c(=O)c(C)c(-c4ccccc4)oc23)CC1

D2 PAM | gsp agonist | D2 agonist | gsp antagonist | CtBP-E1A inh | Six1-Eya2 inh | Structure
-0.4 | -11.6%[15.4 µM] | -1.8 | 4.7% | 6.4 | -3.5 | Cc1noc(C)c1COc1ccc(CC(=O)NCCc2ccccn2)cc1
8.5 | -30.6% | 1.3 | ? | -93.4* | ? | COc1cc(/C=C(\C#N)C(=O)NC2CCCCC2)ccc1OCc1ccc(C(=O)O)cc1
0.2 | -3.7% | 0.8 | -19.4% | . | -1.6 | NC(=O)c1nsc(C(=O)N(c2ccccc2)C(C(=O)NCC2CCCO2)c2cccs2)c1N (stereo not drawn)
-9.7 | 4.5% | -6.1 | 12.3% | 0.0 | -4.8 | CSc1ccc(C(=O)NCC(=O)O)cc1[N+](=O)[O-]
3.1 | 6.4%[15.4 µM] | -1.0 | 10.9% | 14.2 | 4.5 | CCn1c(N2CCN(S(=O)(=O)CC)CC2)nc2ccccc21
-5.3 | 3.8%[15.4 µM] | -2.2 | 10.1% | 3.8 | -1.6 | CS(=O)(=O)c1ccc(Cl)c(NC(=O)C2CC(=O)N(Cc3ccco3)C2)c1 (stereo not drawn)
12.8 | -19.3% | 2.2 | -8.2% | 6.9 | 3.3 | Cc1cc(O)c(/C=N/Nc2ccccc2Cl)c(=O)o1
7.9 | -2.2%[15.4 µM] | 1.8 | 5.5% | -1.2 | 7.2 | N#CCCn1cc(C(=O)O)c(-c2ccc3ccccc3c2)n1

D2 PAM | gsp agonist | D2 agonist | gsp antagonist | CtBP-E1A inh | Six1-Eya2 inh | Structure
-8.6 | 2.7% | 8.6 | -2.8% | . | -8.6 | CCOC(=O)CSc1nc(N)c(C#N)cc1C#N
-7.2 | -51.6%[inhibitor] | 0.6 | -0.5% | -15.2 | -13.2 | Cc1cc(O)c(NC(=S)NC(=O)c2ccc(-c3ccc(Cl)cc3)o2)cc1C
-7.3 | -15.9% | -5.0 | -15.2% | 0.0 | -1.9 | CCNc1nc(N2CCOCC2)nc(N(c2ccccc2)c2ccccc2)n1
6.2 | -51.4% | 1.5 | -10.0% | 4.5 | 2.6 | COCCN(C(=O)Nc1ccc(F)cc1F)c1nc2ccccc2s1
-1.8 | 11.6% | 1.7 | -10.1% | -12.1 | 2.1 | Cc1cccc(-n2c(SCC(=O)N(C)C3CCS(=O)(=O)C3)nc3ccccc3c2=O)c1C (stereo not drawn)
5.6 | 2.5% | 2.0 | . | -14.0 | 3.6 | CC(C)OC(=O)N(C)C[C@@H]1OCc2cn(nn2)CCCC(=O)N([C@H](C)CO)C[C@H]1C
6.1 | -13.1% | 4.2 | 3.7% | . | -12.4 | CCOc1ccccc1NC(=S)NC1CC2CCC1C2 (stereo not drawn)
0.8 | -27.4% | -1.1 | 4.0% | . | 5.5 | Cc1ccc(Nc2nnc(SCc3nc4ccccc4c(=O)[nH]3)s2)cc1

D2 PAM | gsp agonist | D2 agonist | gsp antagonist | CtBP-E1A inh | Six1-Eya2 inh | Structure
. | . | -1.5 | -6.7% | 70.6 | 72.8 | Cc1cccc(C2=NN(c3ccccc3)[C@H](CO)[C@H]2c2ccc(F)cc2)c1
-24.9 | -29.7% | 3.9 | -7.2% | -20.4 | -15.2 | COc1ccc2c(c1)C=C(CN1CCN(Cc3ccccc3C)C(CCO)C1)CO2 (stereo not drawn)
-7.8 | 2.6% | -2.1 | -0.1% | -0.1 | 8.4 | Cc1nc2[nH]onc2c2nccc(=O)c12
0.7 | 4.0% | 5.9 | -0.1% | ? | -89.0* | COc1ccc2nc(NN=C(C)c3ccccn3)cc(C)c2c1
11.7 | 1.5% | -2.0 | -11.3% | -3.2 | -4.2 | CC(C)Nc1nc(NC(N)=S)nc(NC(C)C)n1
-6.9 | -31.9%[inhibitor] | -3.4 | -0.4% | . | 6.1 | CC(=O)NC12CC3CC(C1)CC(C(=O)N1CCN(S(=O)(=O)c4cccs4)CC1)(C3)C2
-0.3 | 3.0% | -3.7 | 3.0% | 1.7 | -1.0 | CCOC(=O)N1CCC(NC(=O)C2CCCCN2S(=O)(=O)c2ccc(F)cc2)CC1 (stereo not drawn)
-4.2 | -21.3% | -5.1 | -24.9% | -8.1 | -24.9 | CC(C)Oc1ccc(C(=O)Nc2ccccc2N2CCCC2)cc1

D2 PAM | gsp agonist | D2 agonist | gsp antagonist | CtBP-E1A inh | Six1-Eya2 inh | Structure
-5.5 | -27.2% | 2.3 | 1.0% | -1.2 | -0.9 | O=C(Nc1cccc2ccccc12)c1cn(-c2ccccc2)nc1-c1cccs1
-14.7 | -2.0% | -1.9 | 8.0% | -0.8 | -0.1 | OCCN=C1CCCc2c1[nH]c1ccc(Br)cc21
-2.4 | -8.1% | -0.5 | -16.6% | 8.0 | 16.6 | Cc1cccc(C(=O)Nc2cc(OCc3cccc(F)c3)c(Cl)cc2Cl)c1
-0.7 | ? | 3.5 | 5.4% | -2.7 | -2.3 | COc1ccccc1C(=O)NC(=O)CSc1nnc(N)s1
-5.7 | -2.0%[15.4 µM] | -1.6 | 9.6% | -0.1 | -0.3 | Cc1ccc(NC(=O)CCC(=O)N/N=C/c2coc3ccc(F)cc3c2=O)cc1
-3.6 | . | 2.2 | . | 0.1 | -2.3 | Cc1ccc(S(=O)(=O)NC(=O)C2(C)CCN2C(=O)CCc2ccc(Cl)cc2Cl)nc1 (stereo not drawn)
-2.4 | 3.4% | -4.0 | 4.6% | 7.8 | 3.7 | N#Cc1ccc(CSc2nc(N)cc(N)n2)cc1
-7.3 | -18.0%[15.4 µM] | 1.8 | 17.0% | -1.2 | 8.3 | CN1CCN(CCNC(=O)Nc2ccc(Cl)cc2)CC1

D2 PAM | gsp agonist | D2 agonist | gsp antagonist | CtBP-E1A inh | Six1-Eya2 inh | Structure
-3.3 | 29.8% | -0.8 | -2.0% | -0.9 | 4.1 | C/C(N)=C(/C#N)C(=O)CSc1nc2ccccc2c(=O)n1Cc1ccc(C)cc1
-10.5 | 4.6% | -5.5 | -4.5% | 20.6 | 7.2 | COC(=O)C1=C(C)NC2=C(C(=O)CC(C)(C)C2)C1c1ccsc1 (stereo not drawn)
4.7 | -5.1%[15.4 µM] | -3.4 | 8.2% | 5.6 | -3.7 | CC(=O)NC(CC(=O)Nc1ccc(S(=O)(=O)N2CCOCC2)cc1)c1ccccc1 (stereo not drawn)
0.3 | . | 1.7 | 9.1% | 9.2 | 8.5 | CCN1C[C@@H]2[C@@H]3C(=O)N(Cc4ccccc4)C(=O)[C@@H]3[C@](CC)(C(=O)OC)N2C1=NC
-7.1 | 2.0% | -0.5 | 3.5% | -0.2 | 5.9 | O=C(N/N=C/c1ccncc1)c1ccncc1
-1.9 | 24.6% | 0.2 | 3.3% | 22.7 | 19.3 | CCOC(=O)CCCn1nc(C)n2c(cc3sccc32)c1=O
-15.7 | 18.3% | -1.0 | ? | -6.3 | -4.3 | CC(=O)c1cccc(S(=O)(=O)N2CCCC(c3nc(-c4ccc(C)o4)no3)C2)c1 (stereo not drawn)
-3.6 | ? | -1.0 | -6.1% | -18.9 | 8.6 | COC(=O)c1ccc(C)cc1

D2 PAM | gsp agonist | D2 agonist | gsp antagonist | CtBP-E1A inh | Six1-Eya2 inh | Structure
-12.6 | 2.3% | 1.4 | -5.0% | . | 10.6 | O=C(NNC(=O)C1CCN(C(=O)Nc2ccccc2)CC1)c1ccc([N+](=O)[O-])cc1
-1.5 | 1.3% | -2.7 | -4.4% | 3.4 | 0.2 | CCOc1ccc(N2C(=O)/C(=C\c3ccccc3OC)S(=O)(=O)C2c2cccc([N+](=O)[O-])c2)cc1 (stereo not drawn)
13.4 | -0.5%[15.4 µM] | 1.2 | 13.9% | 5.6 | -3.7 | Cc1ccc(NC(=O)CNC(=O)CC23CC4CC(CC(C4)C2)C3)c(O)c1
-21.2 | -1.3%[15.4 µM] | -2.4 | -15.9% | 0.1 | -0.9 | Brc1cccc(CNc2nc3ccccc3n2CCN2CCOCC2)c1
-4.9 | 0.3% | -2.1 | 14.2% | 6.1 | 0.1 | CN1CCN(NC(=O)/C=C/c2ccc(C(C)(C)C)cc2)CC1
-6.2 | -1.2% | -3.7 | 8.2% | 10.4 | 1.4 | COc1ccccc1NC(=O)c1oc2ccccc2c1NC(=O)c1ccco1
-4.1 | 6.9% | -3.3 | -5.9% | -2.3 | 0.0 | COc1ccc(NC(=O)C2CCCN2S(=O)(=O)c2ccc3c(c2)CCC(=O)N3)cc1Cl (stereo not drawn)
-0.9 | 2.0%[15.4 µM] | -1.1 | ? | -8.2 | -11.2 | COc1ccc(C(=O)CSc2nnn(-c3cccc(NC(C)=O)c3)n2)cc1
-7.5 | -8.2%[15.4 µM] | -4.2 | 6.8% | -3.0 | 10.4 | CCCCN(C(=O)c1ccc(S(=O)(=O)N2CCC(C)CC2)cc1)C1CCS(=O)(=O)C1 (stereo not drawn)

Screening data from PubChem BioAssay.
